Compound activity (PubChem BioAssay)
Mtb MbtI inh = blocks the Mycobacterium tuberculosis siderophore enzyme MbtI; inhibition, %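 (about 17 µg/mL by stock and volumes)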; 0.89% of 100,000 active; P9WFX0; purified MbtI enzyme, fluorescence intensity read-out; AID 493033;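 active means above 50% in both replicates, above 80% if mildly self-fluorescent; inactive means the rest, strongly fluorescent compounds included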;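 further: 0% = mean of negative and 100% = mean of positive controls; one replicate is shown; some compounds called inactive have numbers as strong as hits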
Target sequence (P9WFX0 whole entry, looked up): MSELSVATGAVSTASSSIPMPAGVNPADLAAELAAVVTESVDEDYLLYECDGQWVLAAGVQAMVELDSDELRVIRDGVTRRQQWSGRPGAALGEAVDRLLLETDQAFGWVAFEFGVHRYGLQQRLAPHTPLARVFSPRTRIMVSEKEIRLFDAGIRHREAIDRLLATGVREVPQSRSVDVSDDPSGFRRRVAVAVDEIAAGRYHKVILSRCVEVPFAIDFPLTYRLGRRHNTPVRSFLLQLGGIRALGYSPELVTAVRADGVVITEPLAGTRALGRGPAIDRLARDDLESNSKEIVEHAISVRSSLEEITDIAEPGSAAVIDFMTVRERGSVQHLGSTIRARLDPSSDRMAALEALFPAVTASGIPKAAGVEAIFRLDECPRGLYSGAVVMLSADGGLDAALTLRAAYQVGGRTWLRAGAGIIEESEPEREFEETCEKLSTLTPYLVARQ
PV pol inh = inhibitors of poliovirus RNA polymerase binding and polymerization; poliovirus polymerase elongation, fluorescence polarization; active compounds read low; 0.66% of 150,000 active; % elongation, % (compound at 16.7 µg/mL); in the data active means % elongation below about 90%; further: some results filed as inactive read as strong as hits
Target sequence (P03300 1749-2209 limits assumed): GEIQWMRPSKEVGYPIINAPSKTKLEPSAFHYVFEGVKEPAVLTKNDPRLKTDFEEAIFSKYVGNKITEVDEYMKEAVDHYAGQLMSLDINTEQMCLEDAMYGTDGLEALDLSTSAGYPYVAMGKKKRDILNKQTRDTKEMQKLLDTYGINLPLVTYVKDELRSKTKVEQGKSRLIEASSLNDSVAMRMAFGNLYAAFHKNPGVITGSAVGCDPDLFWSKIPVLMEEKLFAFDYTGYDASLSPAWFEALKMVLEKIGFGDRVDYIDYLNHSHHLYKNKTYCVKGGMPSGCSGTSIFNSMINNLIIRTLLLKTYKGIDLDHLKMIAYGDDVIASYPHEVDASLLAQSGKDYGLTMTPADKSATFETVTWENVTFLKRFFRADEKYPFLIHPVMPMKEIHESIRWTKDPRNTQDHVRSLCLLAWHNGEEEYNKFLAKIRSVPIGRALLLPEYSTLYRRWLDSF
MenB inh = Mtb MenB enzyme inhibition | P9WNP5 | MenB enzyme assay, absorbance read-out; some hits fall short of the stated cut | inhibition, %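 (about 12 µg/mL by stock and volumes)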 | 0.43% of 100,000 active | AID 540299;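 active means mean of two replicates above 30%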;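 further: 0% = no compound and 100% = wells with inactive enzyme; the first replicate is given; strong numbers were not always called active; inactives centre near -10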
PV pol inh intensity = recorded beside PV pol inh, whose call it bears; % elongation; measured here: total intensity read-out; formula for this scale not given here;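 total fluorescence in place of polarization; lower means less elongation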
Starred values were filed as active, the others as inactive; · = no result given.

SMILES	Mtb MbtI inh	PV pol inh	PV pol inh intensity	MenB inh
C[C@]12CCC3c4ccc(O)cc4CCC3C1CC[C@@H]2O (stereo partly drawn)	-8	100	101	-19
COC(=O)C1=C(C)N(C)C(=O)NC1c1ccc(O)c(OC)c1 (stereo not drawn)	·	103	106	-7
O=C(c1ccccc1)c1cnc2cc3c(cc2c1N1CCCCCC1)OCCO3	-3	101	101	4
CCOC(=O)C(CC)Sc1nnc(NC(=O)c2ccc3c(c2)OCO3)s1 (stereo not drawn)	-2	103	102	-8
CCS(=O)(=O)c1nc2ccccc2n1CC(=O)N(C)c1ccccc1	9	105	104	-13
CNc1cc(NC)c2ncnc3c2c1C(=O)c1ccccc1-3	3	69	194	-4
CCOC(=O)N1CCN(C(=O)c2cc(S(C)(=O)=O)ccc2Cl)CC1	3	104	104	-3
CCOC(=O)c1cc2c(=O)n3cccc(C)c3nc2n(C(C)C)c1=NC(=O)c1ccc2c(c1)OCO2	16	97	97	1
CCN(C(=O)CSc1nnc(C(C)(C)C)n1N)c1cccc2ccccc12	10	102	101	-22
COCCn1c(C)cc(C(=O)COc2nc3ccccc3nc2C)c1C	-15	105	108	-32
Brc1ccc(-c2ncc3ccccn23)cc1	-192	102	105	-1
COc1ccc(-c2[nH]nc3c2C(c2cc(OC)c(OC)cc2OC)C2=C(CC(C)(C)CC2=O)N3)cc1 (stereo not drawn)	-3	100	101	-18

Random excerpt: three records from the list.
SMILES	Mtb MbtI inh	PV pol inh	PV pol inh intensity	MenB inh
O=C(c1ccccc1)c1cnc2cc3c(cc2c1N1CCCCCC1)OCCO3	-3	101	101	4
CCN(C(=O)CSc1nnc(C(C)(C)C)n1N)c1cccc2ccccc12	10	102	101	-22
COC(=O)C1=C(C)N(C)C(=O)NC1c1ccc(O)c(OC)c1 (stereo not drawn)	·	103	106	-7

Ordered by molecular weight (high to low): some entries from above
SMILES	Mtb MbtI inh	PV pol inh	PV pol inh intensity	MenB inh
CCOC(=O)C(CC)Sc1nnc(NC(=O)c2ccc3c(c2)OCO3)s1 (stereo not drawn)	-2	103	102	-8
CNc1cc(NC)c2ncnc3c2c1C(=O)c1ccccc1-3	3	69	194	-4
Brc1ccc(-c2ncc3ccccn23)cc1	-192	102	105	-1

Carrying on:
SMILES	Mtb MbtI inh	PV pol inh	PV pol inh intensity	MenB inh
CCS(=O)(=O)NCCCc1ccccc1	-12	102	104	-15
O=c1c2ccccc2n(Cc2ccccc2)c(=O)n1-c1cccc(Cl)c1	1	101	99	-13
CN(Cc1cc2ccccc2[nH]c1=O)C(=O)c1ccccc1	89	100	101	-3
COc1cc(/C=N/n2c(=S)[nH]nc(C)c2=O)cc(Br)c1O	-6	103	100	-83
COC(=O)c1ccc(CSc2nc(N)cc(N)n2)cc1	0	101	100	-18
CCN(C(=O)Cn1cnc2c(cnn2C)c1=O)c1ccccc1	-1	101	103	11
CCCCn1cnc2cc(NCc3ccncc3)ccc21	4	99	99	10
C/C(=N\OC(=O)c1nn(C)cc1Br)c1ccc(Cl)cc1Cl	-10	102	102	-19
Cc1ccc(Cn2nc(C)c(/C=C/C(=O)O)c2Cl)cc1	5	97	99	-13
CN(C)C(=S)Nc1ccc(C(C)(C)C)cc1	0	100	101	-16
CN(C)C(=O)Cc1ccc(S(=O)(=O)N2CCCC2)s1	4	99	97	-7
O=C(NCCN1C(=O)C2C3C=CC(C3)C2C1=O)Nc1ccccc1 (stereo not drawn)	-4	103	100	11

Complete entries from above. Values in the order: Mtb MbtI inh	PV pol inh	PV pol inh intensity	MenB inh
COc1cc(/C=N/n2c(=S)[nH]nc(C)c2=O)cc(Br)c1O is listed as -6	103	100	-83
Cc1ccc(Cn2nc(C)c(/C=C/C(=O)O)c2Cl)cc1 is listed as 5	97	99	-13

Continuation:
SMILES	Mtb MbtI inh	PV pol inh	PV pol inh intensity	MenB inh
CCc1nn2c(=O)cc(COc3ccc(/C=C4/C(=N)N5C=CSC5=NC4=O)cc3)nc2s1	-2	102	100	-7
O=C(CN1C(=O)COc2ccccc21)Nc1ccc(S(=O)(=O)Nc2ncccn2)cc1	4	129	142	3
O=C(CSc1ccccc1C(=O)O)NC1CCCc2ccccc21 (stereo not drawn)	-2	104	104	·
Nc1c(N2CCCC2)c2ccccc2oc1=O	-3	102	102	-9
Cc1ccc2c(c1)C1CN(C)CCC1N2C(=S)Nc1ccc(S(=O)(=O)N2CCOCC2)cc1 (stereo not drawn)	13	104	104	-22
Cn1c(=O)c(-c2nc(-c3ccccc3)cs2)cn(-c2ccccc2)c1=O	-7	107	108	-16
CC1CCc2c(sc3nc(=S)sc(N)c23)C1 (stereo not drawn)	98	97	102	-67
COC(CNC(=O)c1ccc(Cn2nnc3ccccc3c2=O)cc1)OC	10	103	104	-4
O=C1c2ccccc2NC(c2ccc(Cl)cc2Cl)N1O (stereo not drawn)	6	106	101	-19
CCOC(=O)/C=c1\s/c(=C\c2ccc(C#N)cc2)c(=O)n1CC(=O)N1CCCCC1C (stereo not drawn)	10	102	95	-14
CC(C)n1c(CN(C)c2ccccc2)nc2ccccc21	-7	105	99	-48
O=C(c1ccccc1SCc1ccccc1)N1CCCc2ccccc21	·	104	110	-39
O=C1NC(CCc2ccccc2)C(=O)N1Cc1cc(=O)n2ccsc2n1 (stereo not drawn)	16	98	107	12
Cc1cc(N2CCCCC2)nc(N2CCC(O)(Cc3ccccc3)CC2)n1	0	102	101	3
O=C(c1cnccn1)N(Cc1cccs1)C1(C(=O)NC2CCCC2)CCCCC1	-2	104	100	-13
COc1cc(C(C(=O)NC2CCCCC2)N(Cc2ccco2)C(=O)c2cnccn2)cc(OC)c1OC (stereo not drawn)	-30	103	103	-47
CC(=O)Nc1cc(NC(C)=O)cc(C(=O)N2CCCC3CCCCC32)c1 (stereo not drawn)	-4	103	105	-16
CCCCNC(=O)CN1N=C(c2ccccc2)CCC1=O	-24	99	102	-8
Clc1ccc(NC2=NCCCS2)cc1Cl	0	106	99	·
Cc1cccc(CCNC(=O)CSc2c3c(nc4ccc(Cl)cc24)CCCC3)c1	8	102	101	-34
CCSc1[nH]c(=O)cc(C)c1C#N	33	111	100	14
COc1ccc(CC(=O)n2[nH]c(=O)ccc2=O)cc1OC	·	102	94	9
CC(Nc1ncnc2c1oc1ccccc12)C12CC3CC(CC(C3)C1)C2 (stereo not drawn)	40	102	110	-28
O=S(=O)(Nc1ccccc1)c1ccc2oc3ccc(S(=O)(=O)Nc4ccccc4)cc3c2c1	-4	99	103	-16
CN(C(=O)NCc1noc2ccccc12)c1ccccc1	-9	102	104	3
Cc1ccc(-c2nc(N)sc2CC(=O)OCC(=O)NCc2cccs2)cc1	15	110	103	-43
CCOC(=O)c1sc(NC(=O)C2CC(=O)N(c3ccccc3)C2)c(C#N)c1C (stereo not drawn)	1	102	101	-59
CCOC(=O)c1c(NC(=O)CSc2nccn2C)sc2c1CCCC2	-10	102	104	-23
N#Cc1ccc(NC(=O)Cc2ccccc2)cc1	·	100	99	4
CC1=CC(=C(C#N)C#N)C=C(c2ccccc2)O1	-6	98	105	-162
O=C(O)c1cc2cc(Cc3cccnc3)ccc2o1	-10	101	101	-24
O=C(CN(Cc1ccccc1)S(=O)(=O)c1ccc(Br)cc1)N1CCOCC1	-5	102	102	-28
Cc1cc2ccccc2n1-c1ccc(C(=O)N2CCC(C(=O)N(C)Cc3ccccc3)CC2)s1	64	102	104	-12
O=C1CCC(Cc2ccccc2)C(C(=O)O)C1 (stereo not drawn)	·	99	105	-4
Cc1cc(C(=O)CSc2nnc(N)s2)c(C)n1Cc1cccs1	2	101	107	-6
Cc1nc(SCC(=O)N2CCCC2)c2c(C)c(C)sc2n1	1	97	101	12
O=C(COc1cccc(NC(=O)C(F)(F)C(F)F)c1)N1CCOCC1	-9	101	101	9
Cc1coc2cc3oc(=O)c4c(c3cc12)CCC4	19	102	98	24
Cc1ccc(NC(=O)OC(C)(C)C)s1	·	102	109	-34
Cc1ccc2cc(C(c3nnnn3C3CCCC3)N3CCCc4ccccc43)c(=O)[nH]c2c1 (stereo not drawn)	-54	100	107	2
COCCNC(=O)c1cc2c(=O)n3cccc(C)c3nc2n(C)c1=N	107	·	·	-138
CCCn1c2ccc(C)cc2c2nnc(SCCN3CCOCC3)nc21	13	104	97	-27
COC(=O)c1cc(=O)nc(NC(=O)Nc2c(-c3c(Cl)cccc3Cl)noc2C)s1	-28	102	106	-24
Cc1cccc(OCCSC(N)=S)c1	39	98	100	6
O=S(=O)(Nc1nc2ccccc2nc1NCc1ccco1)c1ccc(F)cc1	-27	·	·	-14
Cc1nn(-c2ccccc2)c2sc(-c3nc(=S)[nH][nH]3)cc12	21	105	104	-50
O=C(CSc1cccc[n+]1[O-])N1CCCc2ccccc21	-1	102	108	·
COc1ccc(Nc2c(C#N)c(C)nn2-c2ccccc2)cc1	-26	104	108	-33
c1ccc(COc2c3c(nc4ccccc24)CCCC3)cc1	-12	102	99	-35
O=C(Oc1ccc(/C=N/n2cnnc2)cc1)c1ccco1	-18	99	107	2
CC(C)(C)C(=O)Nc1nc(NC(=O)C(C)(C)C)nc(-c2ccccc2Cl)n1	1	99	98	5
COc1ccccc1CN(C)C(=O)c1ccc2nc[nH]c2c1	6	103	105	-41
O=C(CC1SC(=Nc2ccc(O)cc2)NC1=O)Nc1ccccc1 (stereo not drawn)	2	102	101	2
O=C(CN1CCC(c2nc(-c3ccncc3)n[nH]2)CC1)N1CCN(c2ccccc2F)CC1	0	102	102	7
O=C(O)C1OC(c2cccc(Cl)c2)=NC12CC2 (stereo not drawn)	-6	98	104	-11
CC(=O)NCCC(=O)N1C(=NCCc2ccccc2)SCC1(C)C	7	99	94	2
CC(=O)Oc1ccc2c(c1)CCC1C2C(O)CC2(C)C(=O)CCC12 (stereo not drawn)	4	100	101	9
Cc1ccc(CSc2nc3ccccc3c3nc(CCn4nc(C)cc4C)nn23)cc1	7	103	103	1
O=C(NCc1ccccn1)C1CCC(CNS(=O)(=O)c2ccccc2)CC1 (stereo not drawn)	-14	104	105	-5
O=C(Nc1ccnn1Cc1ccco1)c1cccnc1Sc1ccccc1	-6	95	101	-13

Next section.
SMILES	Mtb MbtI inh	PV pol inh	PV pol inh intensity	MenB inh
COc1ccc(CN(C)CC(=O)NC(C)c2ccccc2)c(OC)c1 (stereo not drawn)	15	·	·	-20
Cn1c(O)c(/C=N/Nc2nc3ccccc3s2)c(=O)n(C)c1=O	7	127	129	-25
CCC(C)C(NCc1c(O)ccc2c(C)cc(=O)oc12)C(=O)O (stereo not drawn)	·	102	95	2
CCc1ccc2[nH]c3nc(C)cc(C)c3c(=O)c2c1	72	102	101	-32
O=C(CC1SC(=Nc2ccccc2)NC1=O)NC1CC1 (stereo not drawn)	7	102	107	-14
CCOc1ccc(NC(=O)NCc2cccn2C)cc1	-3	102	106	-15
C=CCn1c(=O)c2ccccc2n2nnc(C(=O)OCC)c12	-1	104	110	13
CC1=Nc2cc(C(=O)NCCc3ccccc3)ccc2Sc2ccccc21	0	105	99	-4
C=C1Cc2c(Cl)cc3[nH]c4c5c3c2[C@@]2(O)[C@@H]1C[C@@H]2C(C)(C)O[C@H]5[C@@H]1CC[C@@]2(O)[C@@]35O[C@@H]3[C@@H](O)[C@@H](C(=O)O)O[C@H]5CC[C@]2(C)[C@@]41C	-16	102	104	·
C#CCOC(=O)Nc1cnc(N(C)C)c(C(F)(F)F)c1	-93	102	104	-10
COc1cccc(Cc2nnc(-c3ccc(-c4cccs4)s3)o2)c1	132	104	100	-10
O=C1NCCCC1C(=O)NCCc1c[nH]c2ccc(OCc3ccccc3)cc12 (stereo not drawn)	·	107	111	-27
CCOC(=O)N1CCN(CCC(=O)Nc2cc(OC)cc(OC)c2)CC1	-6	102	102	-9
Cc1ccc2nc(-c3cccc(-c4nc5ccc(C)cc5o4)c3)oc2c1	17	101	102	4
C/C(=N\NC(=O)c1ccccc1)c1ccccc1	14	101	102	5
